# UUG fidelity: alters start codon recognition fidelity in yeast; S. cerevisiae UUG-firefly luciferase reporter, luminescence/redox ratio; activity score, % at 18.7 µM; 350,000 compounds, 0.13% hits;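 active = replicate mean at a twofold rise or more, about +100% in these data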;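 note: firefly luciferase made from a UUG start codon reports start codon fidelity; reporter light over untreated wells divided by growth signal over untreated wells; some hits fall short of that in this replicate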
# eIF4H FP inh: inhibitors of RNA binding by human eIF4H; Q15056; eIF4H fluorescence polarization binding assay; inhibition, % at 35 µM; 290,000 compounds, 0.94% hits;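 active = 50% or more with normal probe brightness, or confirmed in later tests; about a fifth of its hits are not listed in these tables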;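 note: calls also rest on retests at 20 µM and on dose response follow-up; 0% = protein and probe with vehicle and 100% = probe without protein; strong numbers were not always called active; many hits fall short of the cut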
# CSC inhib: blocks cancer stem cells; cancer stem cell-like cells viability, luminescence; inhibition, % at 7.5 µM; 300,000 compounds, 1.1% hits; AID 2717;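 active = mean at 75% or more and at least half the replicates too; tested in HMLE shEcad cells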;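 note: 0% = median of negative and 100% = median of positive control wells; the first replicate is given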
# HIV Env fusion: inhibitors of HIV Env-mediated cell fusion; HeLa-JRFL Env/CEM21 cell fusion, luciferase; 360,000 compounds, 1.1% hits; inhibition, % at 12.3 µM; AID 651610;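 active = mean replicate inhibition score of at least 50 and every replicate individually at or above 50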;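 note: 0% = plate neutral controls and 100% = maraviroc near 300 nM; one replicate is shown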
# PABP FP inh: blocks human PABP binding to poly(A) RNA; fluorescence polarization; P11940; inhibition, % at 35 µM; 290,000 compounds, 1% hits;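 active = 50% or more with normal probe brightness, or confirmed in later tests; about a fifth of its hits are not listed in these tables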;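 note: calls also rest on retests at 20 µM and on dose response follow-up; controls were probe without protein and protein plus probe with vehicle; some compounds called inactive have numbers as strong as hits; many hits fall short of the cut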
# Target sequence (P11940 whole entry, looked up): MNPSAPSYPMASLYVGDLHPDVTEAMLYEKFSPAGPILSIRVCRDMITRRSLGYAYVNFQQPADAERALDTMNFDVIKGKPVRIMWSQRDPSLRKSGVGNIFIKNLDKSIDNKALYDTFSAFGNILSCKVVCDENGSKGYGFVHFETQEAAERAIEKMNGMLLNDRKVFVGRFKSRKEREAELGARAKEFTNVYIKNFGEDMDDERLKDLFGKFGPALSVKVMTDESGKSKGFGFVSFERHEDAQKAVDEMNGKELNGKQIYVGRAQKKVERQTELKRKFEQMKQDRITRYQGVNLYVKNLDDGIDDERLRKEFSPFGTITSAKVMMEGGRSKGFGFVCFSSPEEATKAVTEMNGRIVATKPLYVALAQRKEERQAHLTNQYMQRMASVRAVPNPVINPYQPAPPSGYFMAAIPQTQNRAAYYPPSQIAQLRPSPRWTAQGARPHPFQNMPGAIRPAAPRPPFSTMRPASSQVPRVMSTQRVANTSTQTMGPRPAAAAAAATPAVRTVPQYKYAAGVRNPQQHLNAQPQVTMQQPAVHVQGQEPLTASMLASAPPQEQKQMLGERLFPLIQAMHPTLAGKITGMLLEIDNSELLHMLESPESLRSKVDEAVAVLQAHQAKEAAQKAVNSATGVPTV
# MT1-MMP act inh: MT1-MMP (human) activation inhibition; HT1080 RFP-PRO-GFP cells, GFP/RFP ratio fluorescence, overnight; percent of plate control window, DMSO zero; GFP/RFP ratio change, % at 20 µM; 360,000 compounds, 0.061% hits; AID 651647;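 active = GFP/RFP ratio change of at least 30% with cell ATP level not reduced by more than half and red fluorescence within 50% of control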; note: strong numbers were not always called active
#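 Test system: HT1080 cells expressing an RFP-PRO-GFP fluorescent reporter construct / Compound dosing: single-point 20 µM compound, 1% DMSO / Schedule: cells overnight before dosing, compound overnight, 37 °C, 5% CO2 / Evaluation: GFP/RFP fluorescence ratio / Control set: DMSO and RFP-L50D-GFP cell wells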
# Rce1 inhib: blocks yeast Ras-converting enzyme; Q03530; yeast membranes, quenched prenylated peptide cleavage fluorescence; calls only; 290,000 compounds, 0.27% hits; AID 2563;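 active = fall in fluorescence gain of 50% or more versus controls, with final raw signal at or below 3038400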;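 note: plate controls were neutral control wells for no effect and wells lacking membranes for full effect; tested at 10 µM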
# Target sequence (Q03530 whole entry, looked up): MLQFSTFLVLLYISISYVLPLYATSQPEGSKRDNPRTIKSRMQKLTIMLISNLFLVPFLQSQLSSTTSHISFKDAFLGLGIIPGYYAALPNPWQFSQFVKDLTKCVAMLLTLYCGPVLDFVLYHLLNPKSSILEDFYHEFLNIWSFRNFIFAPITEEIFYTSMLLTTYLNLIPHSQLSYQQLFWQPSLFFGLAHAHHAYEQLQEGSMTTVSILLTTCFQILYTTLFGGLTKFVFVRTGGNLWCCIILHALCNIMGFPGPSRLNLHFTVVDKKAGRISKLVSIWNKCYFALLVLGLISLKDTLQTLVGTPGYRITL
# eIF4H FP inh retest: further read-out of eIF4H FP inh, marked with its call; inhibition, %; compound at 20 µM; confirmation average;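 mean of two retest wells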
# PABP FP inh retest: also measured in PABP FP inh; calls as there; inhibition, %; compound at 20 µM; confirmation repeats;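 mean of two retest wells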
# MT1-MMP act inh RFP: second read-out of MT1-MMP act inh, no call of its own (marks repeat the call); RFP signal change, %; measured here: RFP expression control read;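 0 = vehicle wells; hits needed this value within 50% of zero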
# * = called active by the depositor; i = inactive; . = not tested or not shown; & = joins results of further samples; [ ] = dose if it differs, or a comment.
SMILES,UUG fidelity,eIF4H FP inh,CSC inhib,HIV Env fusion,PABP FP inh,MT1-MMP act inh,MT1-MMP act inh RFP,Rce1 inhib,others
COc1cc2c(cc1OC)C(C)N(C(=O)c1ccc(Br)o1)CC2 (stereo unspecified),-12,13,9,-28,-3,3,5,i,
Cc1csc(SCC(=O)N(C)CC(=O)Nc2ccc(F)cc2)n1,.,-9,-14,.,5,5,5,i,
O=c1c2c(nc3cc(-c4ccccc4)[nH]n13)CCS2,.,3,0,.,2,-2,1,i,
COC(=O)c1ccc2c(=O)n(CCCCCC(=O)NC(C)C)c(=O)[nH]c2c1,.,36,5,-6,1,3,-2,i,
O=C(Cc1cccs1)NNC(=S)NCc1ccco1,.,-13,-7,1,-6,1,3,i,
Cc1ccc(C(=O)N(Cc2ccc3c(c2)OCO3)Cc2nc3ccccc3c(=O)[nH]2)cc1,-19,-3,1,.,8,-3,-5,i,
CSCC[C@H](NC(=O)c1ccc(Cl)c(S(=O)(=O)N2CCCC2)c1)c1nc2ccccc2[nH]1,4,-9,6,-24,18,2,-3,i,
COc1cccc(CN(C(=O)Cc2c[nH]c3ccccc23)C(C(=O)NC2CCCCC2)c2ccc(C)o2)c1 (stereo unspecified),.,-2,-7,27,5,-19,-19,i,
Cc1nc(SCC(=O)N2c3ccccc3Sc3ccccc32)n[nH]1,-12,2,-11,.,-1,5,2,i,
CCCCCCNC(=O)CCCCCNS(=O)(=O)c1ccc(Br)cc1,.,6,12,-71,-4,-1,-2,.,
CCOC(=O)c1ccccc1NC(=O)c1nc2nccc(C)n2n1,-6,-10,-5,.,7,1,-1,i,
COc1cc(C(=O)O/N=C(\N)Cc2ccc([N+](=O)[O-])cc2)cc(OC)c1OC,-8,-11,30,-4,-12,0,-9,i,
CCN(C(=O)CSc1nc2ccccc2n1CCc1ccccc1)C1CCS(=O)(=O)C1 (stereo unspecified),.,6,-4,.,4,0,1,i,
NC(=O)/C(=C/c1ccco1)NC(=O)c1ccc(Br)o1,-15,.,-7,-3,.,2,6,i,
CC(C)c1csc(CN2CCN(Cc3ccc(F)cc3)C(CCO)C2)n1 (stereo unspecified),-9,-16,-3,3,3,2,-4,i,
CN1CCC(NC(=O)NC2CCCCC2)CC1,-23,10,-12,20,-2,1,7,i,
Cc1nc(-c2ccc(Cl)cc2)sc1C(=O)O,.,-7,5,-47,9,-1,2,i,
O=C(Cn1ccc2ccccc2c1=O)NCC(=O)N1CCCCC1,-11,-8,-9,-1,6,1,7,i,
CC(C)(C)NC(=O)c1nc2ccccc2s1,1,0,-4,.,2,1,1,i,
O=C(O)/C=C/c1cccc(NC(=O)c2ccc(Cl)cc2)c1,.,-2,-1,-17,0,0,1,i,
O=C(Oc1ccc(F)cc1)c1cccnc1,-13,5,8,5,7,2,5,i,
CCN(C(=O)COC(=O)CNC(=O)c1cccc(C)c1)c1c(N)n(Cc2ccccc2)c(=O)[nH]c1=O,1,.,-7,.,.,1,4,.,
Cc1cc(C)nc(SCC(=O)c2ccc(Cl)cc2)n1,-23,-11,-1,6,-7,1,3,i,
CC(=O)Nc1ccc(CN(C)c2c(C)nc3ccc(C(=O)N(C)Cc4ccccc4)cn23)cc1,-8,.,.,20,.,0,1,.,
COc1cccc(NC(=O)C2c3cc(OC)c(OC)cc3C(=O)N(C)C2c2cccnc2)c1 (stereo unspecified),-14,0,-6,11,4,5,8,i,
Cc1sc2nc3n(c(=O)c2c1C)CCCCC3,-13,1,-12,.,-1,1,4,.,
O=C(CN1CCC2(CC1)OCCO2)c1ccc2cc[nH]c2c1,-18,-1,-11,-12,1,1,0,i,
COC(=O)C(Cc1ccccc1)NC(=O)c1ccc(C)cc1 (stereo unspecified),.,-1,-9,7,4,2,3,i,
CCOC(=O)CCc1c(C)c2ccc(OCc3cc([N+](=O)[O-])ccc3OC)cc2oc1=O,-5,-8,-12,.,-7,1,3,i,
c1ccc2c(c1)Oc1cccc3cccc-2c13,-15,2,-5,2,5,4,7,i,
C=CCSc1nc2ccccc2n1S(=O)(=O)c1ccc(C)cc1,2,-15,-11,.,6,5,5,.,
C[C@H](CO)N1C[C@H](C)[C@@H](CN(C)C(=O)Nc2ccccc2)Oc2ccc(NC(=O)NC3CCCCC3)cc2C1=O,10&-11,.,.,-6[16.7 µM],.,0,-1,.,
CC(C)[C@H](NS(=O)(=O)c1cccc(C(F)(F)F)c1)C(=O)OCC(=O)NC(=O)NCc1ccco1,-4,.,2,.,.,1,-4,.,
Cc1cc(C)cc(N2CN=C3SCC(=O)N3C2)c1,6,6,-1,.,-3,16,0,i,
Cc1ccc(C(C)C)c(OCc2nnc(SCC(=O)Nc3nccs3)n2C)c1,.,-2,-10,.,-2,2,3,i,
CC(C)n1ncc2c(C(=O)N3CCN(c4ccccc4)CC3)cc(-c3ccccc3)nc21,-9,.,14,10,.,-4,-6,.,
COc1cccc(CN2CC(C(=O)N(C)Cc3ccc(C)cc3)CCC2=O)c1 (stereo unspecified),-5,2,-11,58*,0,1,5,i,
CC(C)c1c(C(=O)N/N=C/C2CC=CCC2)nnn1-c1nonc1N (stereo unspecified),-21,-6,16,6,6,2,5,i,
O=S(=O)(Cc1cccc(C(F)(F)F)c1)c1ncn[nH]1,-10,1,-4,-2,-3,1,3,i,
O=C(CSc1nnnn1-c1ccccc1)Nc1ncc2c(n1)CC(c1ccccc1)CC2=O (stereo unspecified),-14,-17,9,-14,-2,2,3,i,
CCOC(=O)c1c(C)cc(C)n2c1nc1ccccc12,-24,-12,-12,-35,-11,10,1,i,
Cc1cc(C(=O)N2CCc3ccccc32)c2cc(F)ccc2n1,-7,-12,8,.,-3,5,-2,i,
CCOC(=O)/C=C1\SCC(=O)N1CC(=O)Nc1ccc(OC)c(OC)c1,-13,-5,8,.,22,-5,1,i,
COc1cccc(/C=N\Nc2nncc(-c3ccccc3)n2)c1,-27,-11,2,.,1,-1,-1,.,
O=C(CSc1nc2ccc(Cl)cc2[nH]1)NCc1ccco1,13,4,-7,2,14,-1,3,i,
Cc1occc1-c1nnc(SCC(=O)c2ccccc2)n1CC1CCCO1 (stereo unspecified),-17,10,-9,-44,4,-3,-2,i,
Cc1ccc(/C=N/n2c(-c3ccc(Cl)cc3)n[nH]c2=S)s1,-17,8,-1,-4,-1,2,0,.,
O=C(CCCN1C(=O)/C(=C/c2ccccc2Cl)SC1=S)Nc1cccnc1,-26,-8,65,24,-7,1,-2,i,
COc1ccc(-c2noc(C3CCCN(S(=O)(=O)c4ccc(C)c(Cl)c4)C3)n2)cc1OC (stereo unspecified),.,-10,-3,22,-10,-8,-7,i,
COc1ccc(NC(=O)N(C)C[C@H]2Oc3ccc(NC(=O)C4CC4)cc3CC(=O)N([C@@H](C)CO)C[C@@H]2C)cc1,-4&-3,.,.,9[16.7 µM],.,-1,6,.,
COc1ccc(N(C)S(=O)(=O)c2cccc(C(=O)N(C)Cc3ccc(C)o3)c2)cc1,.,-8,1,-11,-7,2,-7,i,
CC(=O)N1CCN(c2ccc(NC(=O)c3ccc([N+](=O)[O-])cc3)cc2)CC1,-8,4,2,-3,-1,4,-1,i,
O=C(CSc1ncn[nH]1)Nc1c(Br)cc([N+](=O)[O-])cc1Br,.,-5,-7,-20,9,4,0,i,
COc1cc2c(cc1OC)C(=O)N1[C@H]3c4cc(Cl)ccc4OC[C@@H]3[C@H](c3ccccc3)[C@]1(C)C(=O)N2,-14,.,13,99*,.,-21,-19,.,
O=C(Nc1cc(S(=O)(=O)N2CCOCC2)ccc1OCC(F)(F)F)C1=COCCO1,0,.,20,15,.,.,.,i,
CCC1CCc2c([nH]c3ccccc3c2=O)O1 (stereo unspecified),.,-10,1,.,3,8,2,i,
O=C(NCC1CCCO1)c1onc(CSc2ccc(F)cc2)c1C(=O)O (stereo unspecified),-22,-10,4,-11,0,-2,6,i,
CCOC(=O)c1cccc(NC(=O)c2cc3sccc3n2C)c1,-11,4,5,-37,-6,-8,-9,i,
CCC(C)(C(=O)NC1CCCCC1)N(Cc1cccs1)C(=O)CC1NC(=O)NC1=O (stereo unspecified),.,-7,-10,.,-11,-3,0,i,
Cc1cc(Cl)nc2c(C(C)C)cccc12,-20,-10,1,-12,36,1,1,.,
# New compounds follow.
SMILES,UUG fidelity,eIF4H FP inh,CSC inhib,HIV Env fusion,PABP FP inh,MT1-MMP act inh,MT1-MMP act inh RFP,Rce1 inhib,others
CCOc1ccc(NC(=O)Nc2ccc3nsnc3c2)cc1,-18,5,29,-3,5,2,-3,i,
CCSc1nnc([C@H](Cc2c[nH]c3ccccc23)NC(=O)OC(C)(C)C)o1,-19,-10,-2,-25,-6,-1,-4,i,
Cc1cc(C)c2sc(N(CCN(C)C)C(=O)c3ccc4ccccc4c3)nc2c1,1,-7,25,-4,-4,1,5,i,
CC1CC(=S)Nc2ccccc2N1C(=O)Nc1ccccc1 (stereo unspecified),.,7,-4,4,2,-3,-1,i,
C/[N+]([O-])=C\CC(=O)c1ccc(-c2ccccc2)cc1,.,-5,2,5,56,-2,-1,i,eIF4H FP inh retest=-12;PABP FP inh retest=1
CN(C(=O)CSc1ncnc2sccc12)C1CCCCC1,-8,.,.,-31,.,1,2,.,
CCN1CCN(CC(=O)NC2CCCC2)C(=O)C1=O,-18,-2,-4,-17,9,-15,-43,i,
O=[N+]([O-])c1cccnc1N1CCOCC1,.,-2,-5,-53,2,4,-2,i,
O=C(Cn1cc(COc2ccc(Cl)c(Cl)c2)nn1)NS(=O)(=O)c1ccccc1C(F)(F)F,-2,.,.,7,.,-2,5,.,
Cn1c(NCCCO)nc2c(c1=O)C1(CCCCC1)Cc1ccccc1-2,8,-1,21,.,-5,5,-3,.,
CCOC(=O)c1sc(NC(=O)c2ccccc2OCC)nc1C,.,-6,-7,-6,7,-1,2,i,
Cn1nccc1C(=O)NC(=S)Nc1sc2c(c1C#N)CCCCC2,-14,12,20,-58,11,0,3,.,
O=C(CN(C(=O)CNC(=O)c1ccco1)c1ccc(Cl)c(Cl)c1)NC1CCCCC1,-4,-6,4,-64,-5,-2,-4,i,
CCN1CCN(C(=S)Nc2ccccc2Cl)CC1,-24,1,12,-54,-11,-1,5,i,
CCn1c(SCC(=O)N(C)C2CCS(=O)(=O)C2)nnc1-c1cccs1 (stereo unspecified),.,-7,14,5,3,5,18,i,
C=CCc1ccc(OCC(O)COCC)c(OC)c1 (stereo unspecified),-4,-6,-13,.,-5,3,4,i,
CCOc1ccc(C2=Nn3cnnc3SC2)cc1,-22,8,-18,-53,27,5,2,i,
COCCN(CCOC)S(=O)(=O)c1ccc(C(=O)Nc2ccc([N+](=O)[O-])cc2OC)cc1,-14,-7,-1,-17,-3,-4,-1,i,
CCC(=O)c1ccc(OCc2ccc(C(=O)OC)o2)c(OC)c1,16,-2,-8,.,-6,0,-2,i,
O=C(Nc1ccc(NC(=O)c2sc3ccccc3c2Cl)cc1Cl)c1ccco1,.,-5,8,-62,-1,5,2,i,

# An excerpt from above in order of length of the SMILES, falling.
SMILES,UUG fidelity,eIF4H FP inh,CSC inhib,HIV Env fusion,PABP FP inh,MT1-MMP act inh,MT1-MMP act inh RFP,Rce1 inhib,others
COCCN(CCOC)S(=O)(=O)c1ccc(C(=O)Nc2ccc([N+](=O)[O-])cc2OC)cc1,-14,-7,-1,-17,-3,-4,-1,i,
CCC(=O)c1ccc(OCc2ccc(C(=O)OC)o2)c(OC)c1,16,-2,-8,.,-6,0,-2,i,
CCN1CCN(C(=S)Nc2ccccc2Cl)CC1,-24,1,12,-54,-11,-1,5,i,
CCOc1ccc(C2=Nn3cnnc3SC2)cc1,-22,8,-18,-53,27,5,2,i,

# Compounds as they come; 2.9% or so of the library scored in one or more.
